Bioassay records deposited in PubChem BioAssay by several laboratories.
Mtb growth – M. tuberculosis H37Rv growth inhibitors, H37Rv strain (AID 1626) | M. tuberculosis H37Rv growth inhibition; higher % means a stronger effect | one-dose inhibition, % at 10 µM; IC50 in µM for titrated hits | 0.95% of 220,000 active;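 active means confirmed in a dose series; inconclusive means inhibition above 80% but not taken into the dose series; inactive means below 80% or under 30% at every dose of the series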;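 further: bacteria incubated seven days before Alamar blue readout; 0% = bacteria only wells and 100% = bacteria with antibiotic wells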
RecA intein inh – blocks M. tuberculosis RecA intein splicing; AID 2221; 0.75% of 290,000 active; P9WHJ3; inhibition, %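 (about 9 µM by stock and volumes)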; cell-free RecA intein splicing, fluorescence; in the data active means inhibition above about 30%; inconclusive means no clear call, values can overlap the other calls;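 further: 0% = vehicle wells and 100% = reference inhibitor control wells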
Target sequence (P9WHJ3 whole entry, looked up): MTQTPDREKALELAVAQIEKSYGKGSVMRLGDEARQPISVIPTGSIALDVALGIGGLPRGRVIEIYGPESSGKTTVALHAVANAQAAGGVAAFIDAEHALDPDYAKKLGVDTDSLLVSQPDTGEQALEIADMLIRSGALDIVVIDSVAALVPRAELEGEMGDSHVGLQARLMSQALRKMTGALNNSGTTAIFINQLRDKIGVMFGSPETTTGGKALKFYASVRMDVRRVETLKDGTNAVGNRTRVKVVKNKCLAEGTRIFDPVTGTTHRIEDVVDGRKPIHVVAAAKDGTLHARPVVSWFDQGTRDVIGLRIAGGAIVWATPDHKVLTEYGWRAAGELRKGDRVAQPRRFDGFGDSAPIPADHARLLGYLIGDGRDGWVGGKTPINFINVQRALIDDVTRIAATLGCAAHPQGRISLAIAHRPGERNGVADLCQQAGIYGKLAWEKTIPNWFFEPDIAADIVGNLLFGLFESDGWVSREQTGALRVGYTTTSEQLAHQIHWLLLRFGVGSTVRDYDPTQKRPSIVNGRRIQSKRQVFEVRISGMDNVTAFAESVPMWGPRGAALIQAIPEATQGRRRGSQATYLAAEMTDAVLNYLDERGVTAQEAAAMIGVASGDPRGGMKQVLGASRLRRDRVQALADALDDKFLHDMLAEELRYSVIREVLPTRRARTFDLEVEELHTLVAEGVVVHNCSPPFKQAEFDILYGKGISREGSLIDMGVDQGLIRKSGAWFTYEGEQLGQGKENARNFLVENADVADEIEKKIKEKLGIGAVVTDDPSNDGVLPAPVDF
YopH inh – blocks Yersinia enterocolitica YopH tyrosine phosphatase. fluorescence Ex485/Em525. inhibition, %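 (about 10 µM by stock and volumes)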. 0.16% of 140,000 active. AID 898;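 active means inhibition of 50% or more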;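 further: controls were vehicle for no effect and minimum signal wells for full effect; inactives centre near -20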
Arbovirus inh – blocks arbovirus infection; inhibition, % at 10 µM; 0.37% of 200,000 active; arbovirus infection cell-based antiviral screen;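 active means inhibition from about 30%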;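 further: bluetongue infection of BSR cells; cell survival read as ATP light after 72 h; 0% = infected wells without compound and 100% = uninfected wells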
Mtb betalactam – beta-lactam sensitization of Mtb H37Rv. AID 434955. inhibition, % at 25 µM. M. tuberculosis H37Rv growth with meropenem, percent inhibition; hits of this screen are not shown here. 0.27% of 330,000 active;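 active means about 74% or more and at least 40 points above the plate without the antibiotic, then above 30% in a dose series; inconclusive means first-round hits that could not be retested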;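 further: growth measured after seven days incubation then overnight dye step; 0% = bacteria only wells and 100% = bacteria with antibiotic; twin plates without the antibiotic show which effects depend on it; some results filed as inactive read as strong as hits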
Arbovirus inh repeat – further read-out of Arbovirus inh, marked with its call; inhibition, %; measured here: 10K subset replicate screen; many hits read low in the repeat;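 first of two repeat runs on a subset; 0% = infected and 100% = uninfected wells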
The depositor's hits bear a star; i = inactive; ? = inconclusive; . = not tested or not shown.

SMILES	Mtb growth	RecA intein inh	YopH inh	Arbovirus inh	Mtb betalactam	others
COc1ccc(CN2CCS(=O)(=O)CC2)cc1OC	8%	-3.3	.	0	-2
O=C(NCc1ccco1)c1ccccc1-c1ccc(C(F)(F)F)cc1	87%	1.6	0	0	30
O=C(NCCCO)C(=O)NCCc1ccc(Cl)cc1	-9%	0.0	-5	6	9
Cc1ccc(C(C)C)c(OCC(=O)N2CCN(Cc3nc4cc([N+](=O)[O-])ccc4n3C)CC2)c1	9%	8.2	-5	8	7
CCC(=O)n1nc(-c2ccccc2)nc1NCc1ccccc1	1%	-0.9	5	1	10
CCOCC(=O)Nc1cc(C(=O)Nc2cccc(C)c2C)ccc1Cl	-3%	-1.5	-33	-4	-6
COc1ccc(C(CCN2CCCCC2)c2c(O)cc(OC)cc2OC)cc1 (stereo not drawn)	-15%	-3.0	.	.	-7
COc1ccc(C(=O)NC(C)c2ccc(-n3ccnc3)cc2)cc1[N+](=O)[O-] (stereo not drawn)	.	-0.1	.	.	-7
Cc1cc(C(=O)N/N=C/c2ccc(O)c([N+](=O)[O-])c2)n[nH]1	-3%	-4.4	-9	3	4
COc1ccc(C2N(C(=O)c3ccccc3)CCN2C(=O)c2ccc(C)cc2)cc1 (stereo not drawn)	1%	0.7	-15	7	4
Nc1ccc(-c2ccc(N)c(C(=O)O)c2)cc1C(=O)O	-9%	-9.8	.	.	-1
O=C1OC(c2ccc(F)cc2)=C/C1=C\c1ccc(O)cc1	.	0.4	.	.	-3
CCOc1ccccc1-c1ccc(C(=O)NCc2ccccc2)o1	-10%	11	-22	25	44
COC(=O)c1nnn(-c2ccccc2)c1N	-15%	2.0	-31	-5	-7
O=C(Nc1ccccc1)N1C2CCC1CC(O)(c1cccnc1)C2 (stereo not drawn)	3%	7.4	-30	0	-8
CCCCNC(=O)c1cc2c(C)cc(C)cc2[nH]1	79%	2.5	.	.	100
Cc1ccc2[nH]c(=O)c(C3=NN(C(=O)CCC(=O)O)C(c4cccs4)C3)c(-c3ccccc3)c2c1 (stereo not drawn)	3%	-7.0	-55	-2	4
Cc1nc2ccccc2cc1C(=O)N/N=C/c1ccc([N+](=O)[O-])cc1	9%	-9.3	-13	3	-1
Cc1ccc(NC(=O)C(C)N2C(=O)C3CC=C(Cl)CC3C2=O)cc1 (stereo not drawn)	-2%	0.1	7	2	-4
O=C(O)C1CC=CCC1C(=O)Nc1ccc(Oc2ccc(Cl)cc2)cc1 (stereo not drawn)	2%	1.3	-41	5	1
Cc1cccc(C)c1OCC(=O)Nc1ccc(N2CCOCC2)cc1	-4%	-2.9	.	-5	-7
O=C(CNC(=O)c1ccc([N+](=O)[O-])cc1)N/N=C/c1c[nH]c2ccccc12	.	-0.9	.	.	6
CCN(CC)S(=O)(=O)c1cccc(C(=O)Nc2cc(C)nn2-c2ccccc2)c1	-4%	0.2	-17	7	-10
CN1CCN(C(=O)Cn2c(C(F)(F)F)nc3ccccc32)CC1	.	-2.6	16	7	-5
CCOC(=O)c1nnc(-c2ccccc2)nc1NCc1ccc(Cl)cc1	-1%	2.2	-32	-8	97
CCCC(=O)Nc1ccc2oc(-c3cncc(Br)c3)nc2c1	-4%	-3.5	.	-18	13
Cc1cc(C(=O)Nc2ccc3c(c2)OCO3)no1	.	1.6	.	.	-12
CN(C)c1ccc2c3c(ccc(N(C)C)c13)C(=O)OC2	1%	-14	.	.	3
CCOC(=O)c1cnc(SCC(=O)Nc2cccc(OC)c2)nc1N	44%	2.4	-32	1	83
O=[N+]([O-])c1ccc2nc(N3CCCC3)sc2c1	.	-0.8	.	.	7
CC1CN(CC(=O)c2ccccc2Cl)CC(C)O1 (stereo not drawn)	.	-1.9	.	.	3
Cc1ccccc1Nc1ccc2nonc2c1[N+](=O)[O-]	.	5.9	.	.	1
FC(F)(F)c1cnc(N2CCN(C(=S)NCc3ccccc3)CC2)c(Cl)c1	5%	2.3	.	.	6
Cc1cc(NC(=O)CCCC(=O)N(CC(=O)NC2CCCCC2)c2ccccc2)no1	-1%	-3.7	-1	0	1
CCN1C(=O)c2cccc3c(N)ccc(c23)C1=O	.	-190	.	.	-3
COC(C[C@H]1O[C@H]1[C@H](O)[C@H](C)OCc1ccccc1)OC	-13%	1.3	.	.	.
O=C(Nc1nc2ccccc2n1CCN1CCCCC1)c1ccco1	7%	-8.3	-38	1	1
NC(=O)CC(NC(=O)Cc1ccc(Cl)cc1)c1ccc(NC2CC3CCC2C3)c([N+](=O)[O-])c1 (stereo not drawn)	.	2.1	.	.	1
CCN1CCN(c2ccc(NC(=O)c3ccc4c(c3)[nH]c(=O)n4Cc3ccc(OC)cc3)cc2)CC1	11%	1.3	-24	-3	-1
CCOc1c(Cl)cc(CNc2ccc(S(N)(=O)=O)cc2)cc1OC	11%	-1.4	1	5	4

Part of the list above in order of formula weight, smallest number first.
SMILES	Mtb growth	RecA intein inh	YopH inh	Arbovirus inh	Mtb betalactam	others
CC1CN(CC(=O)c2ccccc2Cl)CC(C)O1 (stereo not drawn)	.	-1.9	.	.	3
O=C(Nc1nc2ccccc2n1CCN1CCCCC1)c1ccco1	7%	-8.3	-38	1	1
CCCC(=O)Nc1ccc2oc(-c3cncc(Br)c3)nc2c1	-4%	-3.5	.	-18	13
CCOC(=O)c1cnc(SCC(=O)Nc2cccc(OC)c2)nc1N	44%	2.4	-32	1	83
NC(=O)CC(NC(=O)Cc1ccc(Cl)cc1)c1ccc(NC2CC3CCC2C3)c([N+](=O)[O-])c1 (stereo not drawn)	.	2.1	.	.	1

New compounds follow:
SMILES	Mtb growth	RecA intein inh	YopH inh	Arbovirus inh	Mtb betalactam	others
COc1cccc(OC)c1OCCCCN1CCCC1	-11%	0.0	-20	4	4
O=C(C1CCC(=O)N1Cc1cccnc1)N1CCN(c2ccc(F)cc2)CC1 (stereo not drawn)	-1%	-8.0	-32	4	0	Arbovirus inh repeat=2
CS(=O)(=O)N(CC(N)=O)c1cccc(Br)c1	-2%	-0.4	-13	-2	3
CCN(CC)S(=O)(=O)c1cccc(-c2nnc(SCC(=O)c3cc(C)n(C)c3C)o2)c1	4%	-0.6	-47	1	-3
CCC(=O)Nc1ccc(NC(=S)NC(=O)c2oc3ccccc3c2C)cc1	3%	2.6	-27	-6	5
CCCS(=O)(=O)NCCc1cc2c(OC)ccc(OC)c2[nH]c1=O	.	1.1	-51	5	3
COc1nnc(OC)c2ccccc12	-2%	-1.1	-25	-1	5
CCC(C(=O)NC1CCCC1)N(Cc1ccco1)C(=O)CNS(=O)(=O)c1ccccc1 (stereo not drawn)	.	-2.7	.	.	-4
CCOc1cccc(Nc2ccc([N+](=O)[O-])cn2)c1	.	2.6	.	.	9
CCN(CC)C(=O)Cn1c(=O)n(-c2ccc(CC(=O)NCc3ccccc3)cc2)c(=O)c2sccc21	-10%	-3.5	.	-6	-5
COC(=O)c1cc(OC)c(OC)cc1NC(=O)C1CCC(=O)N1S(=O)(=O)c1ccc(C)cc1 (stereo not drawn)	-6%	0.9	12	-5	-3
Cc1oc(-c2ccc(Cl)cc2)nc1CN1CCC(C(=O)NCc2cccnc2)CC1	-2%	2.2	-43	7	5
O=C(COc1cccc(-n2cnnn2)c1)NC1CCCCC1	-1%	-1.2	.	-5	4
N#Cc1ccc(CSc2ccccn2)c(Cl)c1	.	5.0	.	.	-3
c1ccc2c(-n3cccn3)cccc2c1	-8%	.	-26	-5	-4
COc1ccc(C(=O)CN2CCN(CCN3C(=O)c4cccc5cccc(c45)C3=O)CC2)cc1	.	4.1	.	.	36
CNC(=O)c1c(NC(=O)CCS(=O)(=O)c2ccccc2)sc2c1CCN(C(=O)OC)C2	.	-2.3	.	.	-4
Cc1cccc(C)c1-n1c(C)nn(CC2CC2)c1=O	7%	0.7	.	4	-8
Cc1ccccc1C(=O)NC1CC(C)(C)NC(C)(C)C1	4%	0.2	-14	8	4
O=C(CN1C(=O)c2ccccc2C1=O)NNC1=NS(=O)(=O)c2ccccc21	-5%	-2.9	-47	4	2
CC(=O)N(C)c1ccc(NC(=O)Cc2cccc3ccccc23)cc1	.	1.3	.	.	4
N#C/C(=C\c1ccc[nH]1)C(=O)Nc1ccccc1[N+](=O)[O-]	.	11	.	.	7
C=CCn1c(=N)c(C(=O)NCCCOC)cc2c(=O)n3cc(C)ccc3nc21	.	i	-26	10	17
CCn1c(SCC(=O)NC2CCCCC2)nnc1-c1cccnc1	.	-0.4	.	.	-7
Cc1cc2cc(CNC(=O)CC(C)C)ccc2n1C	-8%	2.2	-35	-8	12
O=C(CSc1nc2c(sc3ccccc32)c(=O)n1Cc1ccco1)NCC1CCCO1 (stereo not drawn)	4%	2.0	7	-10	8
Cn1ccc(C(=O)Oc2ccc(C(=O)Nc3ccc(F)cc3F)cc2)n1	-2%	8.8	.	5	18
COc1ccc(CN(C)C(=O)c2cccc(C(=O)N(C)Cc3ccc(OC)cc3)c2)cc1	.	-4.2	.	.	0
CCNC(=O)CN(c1ccc(Cl)cc1)S(=O)(=O)c1ccccc1	-7%	-1.9	0	0	-8
COc1ccccc1-c1nnc(NC(=O)CCS(=O)(=O)c2ccccc2)o1	.	3.5	.	.	?
COc1ccc(CC(=O)OCC(=O)Nc2c(C)n(C)n(-c3ccccc3)c2=O)cc1	-8%	-0.2	-34	9	-2
Cc1ccccc1-n1nc2c(c1NC(=O)C1CCCC1)CS(=O)(=O)C2	.	0.6	.	.	3
COc1cccc(C2C([N+](=O)[O-])=C(N)Oc3cc(C)oc(=O)c32)c1 (stereo not drawn)	-10%	-0.4	.	.	-6
COCc1cc(C)nc(NC2CC(C)(C)NC(C)(C)C2)c1C#N	.	2.0	.	.	-2
C[C@@H]1CC=C[C@H]2[C@H]1C(=O)N(Cc1ccccc1)[C@H]2c1ccc2ccccc2c1Br	4%	24	.	.	.
O=C(NCCCn1ccnc1)C(=O)NCC1OCCN1S(=O)(=O)c1ccc(Cl)cc1 (stereo not drawn)	-7%	4.8	-20	-5	1
CCC1(C(=O)c2ccc(C)cc2)C2c3ccccc3OC(=O)C21C(=O)O (stereo not drawn)	7%	-0.3	.	.	-2
CCOc1ccc(NC(=O)COc2ccc(C(=O)NCCc3ccccc3)cc2)cc1	77%	-1.7	-21	0	91
O=[N+]([O-])c1ccc(N2CCCC(C(F)(F)F)C2)c2ccncc12 (stereo not drawn)	.	33*	.	.	4
Cn1ccnc1SC(=O)N1c2ccccc2Sc2ccccc21	67%	-3.3	3	2	71	Arbovirus inh repeat=5

Quoted at random: four entries already listed, in no set order.
SMILES	Mtb growth	RecA intein inh	YopH inh	Arbovirus inh	Mtb betalactam	others
COCc1cc(C)nc(NC2CC(C)(C)NC(C)(C)C2)c1C#N	.	2.0	.	.	-2
COc1ccc(CC(=O)OCC(=O)Nc2c(C)n(C)n(-c3ccccc3)c2=O)cc1	-8%	-0.2	-34	9	-2
COc1ccc(CN(C)C(=O)c2cccc(C(=O)N(C)Cc3ccc(OC)cc3)c2)cc1	.	-4.2	.	.	0
N#C/C(=C\c1ccc[nH]1)C(=O)Nc1ccccc1[N+](=O)[O-]	.	11	.	.	7

Carrying on:
SMILES	Mtb growth	RecA intein inh	YopH inh	Arbovirus inh	Mtb betalactam	others
CCCC1(C(=O)OCC)NC(c2ccc(OC)cc2OC)C2C(=O)N(c3ccc4c(c3)OCCO4)C(=O)C21 (stereo not drawn)	2%	1.0	41	10	-7
CCCCn1c(SCC(=O)N2CCC(C(=O)OCC)CC2)nc2cc(S(N)(=O)=O)ccc21	-7%	-1.8	4	-1	-9
COc1cc(NS(=O)(=O)c2ccc(NC(=O)COc3ccccc3C)cc2)nc(OC)n1	-2%	-3.4	8	9	3
FC(F)(F)c1cc(-c2ccc(Cl)cc2)nc(NCc2cccnc2)n1	10%	3.6	-20	-12	-5
CN(C)S(=O)(=O)c1ccc(N2CCCC2)c(C(=O)Nc2ccc(N3CCOCC3)cc2)c1	2%	0.1	-16	-7	-9
N#Cc1cccnc1Nc1cccc(Cl)c1	3%	1.2	-14	-6	-5
O=C(Nc1ccc2oc(-c3cccnc3)nc2c1)c1ccco1	-1%	-1.3	5	-3	-15
Cc1ccc(OCC(=O)NCc2cccnc2)cc1	3%	0.7	.	-7	0

These rows are one share of the data; rates above refer to the full screens.
